From PubChem BioAssay
Biofilm kill mix: mixture kills Candida albicans biofilm cells. C. albicans biofilm persisters + clotrimazole, fluorescence viability; primary screen in compound mixtures of four per well. inhibition, % at 7.6 µM. actives 0.02% (n = 120,000). AID 1242;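 active = inhibition above 30.3% in the primary screen of four-compound pools, then above 30% when the compound was retested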;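 note: compounds exposed to preformed 24 h biofilms for 48 h; the number belongs to the whole pool; some results filed as inactive read as strong as hits; inactives centre near 12; 0% = biofilm with clotrimazole alone and 100% = kill control; retested singly at about 60 µM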
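Assay system: C. albicans biofilms / Medium: RPMI/MOPS medium, pH 7.0 / Schedule: biofilm formation 24 h, compound exposure 48 h, 37 °C / Measured by: Alamar Blue fluorescence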
Active calls of the source: *; & = joins results of further samples. Some of the compounds tested; rates above refer to the full screens.

SMILES | Biofilm kill mix
CCOc1cc(CO)cc(Br)c1OCC(=O)Nc1ccccc1C | -16.1
CCCCCCCN1C/C=C\C(c2ccc(OC)cc2)N(Cc2ccc(F)cc2)C(=O)[C@H]1Cc1ccccc1 (some centres not stated) | 19.2
N#CCCN(C(=O)COC(=O)c1cccc(S(=O)(=O)Nc2ccc([N+](=O)[O-])cc2)c1)c1ccccc1 | 8.0
Cc1cc(NC(=O)NC(C)(C(F)(F)F)C(F)(F)F)no1 | 18.6
O=C(COC(=O)c1ccccc1Cl)NC(=O)NCc1ccccc1 | 13.1
CC(=O)c1ccc(N2CCN(C(=O)Nc3cccc(F)c3)CC2)cc1 | 1.9
Cc1c(C(=O)N2CCCC2)sc(NC(=O)c2ccco2)c1C#N | 6.9
Cc1ccc(CC(CC(=O)Nc2cccc(C(F)(F)F)c2)C(=O)O)cc1 (configuration not stated) | 11.6
Cc1ccc(C2=Nc3ccccc3N=C(c3ccc([N+](=O)[O-])cc3)C2)c(O)c1 | -2.9
CC(=O)c1ccc(S(=O)(=O)Nc2cccc(-c3cn4c(n3)SCC4)c2)cc1 | 14.5
Cc1ccc(S(=O)(=O)N/N=C2/CC(=O)CC(C)(C)C2)cc1[N+](=O)[O-] | 4.7
O=C(COC(=O)c1cc(Br)ccc1Cl)NC(=O)NCc1ccccc1 | 6.0
Cc1[nH]nc(N)c1N=Nc1ccc(Br)cc1 | -32.0
COc1cc(/C=N/NS(=O)(=O)c2ccc3ccccc3c2)ccc1OCc1ccc(C(=O)O)cc1 | 15.0
COc1cc(CN2CCN(Cc3ccc(SC)cc3)CC2)cc(OC)c1O | 24.0
COC(=O)c1[nH]c2ccccc2c1NC(=O)c1ccccc1F | 16.9
Cc1cccc(/C=N/NC(=O)NC23CC4CC(CC(C4)C2)C3)n1 | 22.0
c1ccc(N=C(c2cccs2)N2CCOCC2)cc1 | 3.3
CCC(NC(=O)NNC(N)=S)(C(F)(F)F)C(F)(F)F | 24.2
COC(=O)c1csc2c(C(F)(F)F)cc(N3CCN(C(=O)Nc4ccccc4)CC3)nc12 | 15.8
CC(C)c1ccc(OCC(=O)NC2=NCCS2)cc1 | 17.1
COc1ccc(CNC(=O)Nc2cc(C)cc(C)c2)cc1 | 15.9
CCCN(CCC)CCCNC(=O)CCNS(=O)(=O)c1ccc(Br)cc1 | 10.9
O=C(COC(=O)Cc1ccsc1)NC(c1ccccc1)c1ccccc1 | 10.4
Cc1ccc[n+](C(C)C(=O)Nc2ccc([N+](=O)[O-])cc2C)c1 (configuration not stated) | 11.6
C=CCN(c1ccccc1Cl)S(=O)(=O)c1cccc(C(=O)OCC(=O)N(C)C2CCS(=O)(=O)C2)c1 (configuration not stated) | 8.5
CC1CCC/C(=N\NS(=O)(=O)c2ccccc2)C1 (configuration not stated) | 20.3
Cc1ccc(NC(=O)c2cncc(Br)c2)cc1S(=O)(=O)N(C)C | 3.2
C/C(=N\Nc1ccc(C(F)(F)F)cc1[N+](=O)[O-])C1CC1 | 2.9
CN(Cc1ccccc1)C(=S)NC(=O)c1ccccc1 | 1.3
COc1cc([N+](=O)[O-])ccc1NC(=O)Cc1ccc(C)cc1 | 7.1
CCC1=NN(C(=O)COc2ccccc2)C(O)(c2ccc(Br)cc2)C1 (configuration not stated) | 24.1
CCCCN(C(=N)N1CCCCC1)c1nc(C)c([N+](=O)[O-])c(=O)[nH]1 | 20.2
CCOC(=O)N1CCN(C(=O)C2CCN(Cc3ccc(O)c(OCC)c3)CC2)CC1 | 10.9
COc1ccc2c(=O)cc(-c3ccccc3)n(C)c2c1 | 16.0
O=C(O)C1=C[C@H](c2ccc(F)cc2)C[C@H](OCc2ccc(CO)cc2)O1 | 18.4
Cc1c(C(C)C)c(=O)n(-c2ccc(S(=O)(=O)NC(C)C)cc2)n1C | 11.9
COc1ccc(S(=O)(=O)Nc2ccc(NC(C)=O)cc2)cc1Cl | 12.3
Cn1c(=O)[nH]c(=O)c2c1nc(CN1CCN(c3ccc(F)cc3)CC1)n2CCN1CCOCC1 | -2.7
COc1ccc(-c2noc(C(=O)NCc3ccc(F)cc3)n2)cc1OC | 6.1
COc1ccc(C(=O)NCC(=O)OCC(=O)N2CCCc3ccccc32)cc1 | 13.8
Cc1cc(NS(=O)(=O)c2ccc(NC(=S)NC(=O)c3cccc(S(=O)(=O)N(C)C)c3)cc2)no1 | 25.6
O=c1c2ccccc2nnn1COc1ccc(F)cc1Cl | 5.4
O=C(NC1CCCC1)c1ncn[nH]1 | 13.0
CCOC(=O)NC(=S)Nc1cccc(NC(=S)NC(=O)OCC)c1 | 0.1
COc1ccc(Nc2cc(C)c3c(O)cccc3n2)cc1 | 6.0
N#CCC(=N)N1CCN(c2ccc(F)cc2)CC1 | 13.4
Cc1ccc(/C=N/n2c(C)nc3ccccc3c2=O)o1 | 10.4
Cc1nc(N2CCCCC2)sc1C(=O)c1cccc([N+](=O)[O-])c1 | 6.0
CC(=O)N1C(C)c2ccccc2C(C)(C)CC12CCCCC2 (configuration not stated) | 11.8
CCNC(=O)OCC12CC3CC(CC(C3)C1)C2 | 9.2
Fc1ccccc1/C=N/Nc1nc(N2CCCCC2)nc(N2CCCCC2)n1 | -11.9
CCc1ccc(NC(=O)NCC2CCN(c3ccc(OC)cc3)C2)cc1 (configuration not stated) | 25.1
Cc1cc(C)cc(C(=O)N2CCN=C2SCc2ccc([N+](=O)[O-])cc2)c1 | 16.7
c1cc(CNC23CC4CC(CC(C4)C2)C3)ccn1 | 6.8
CCSc1nc(C)c(CCOc2cccc(C)c2)c(=O)[nH]1 | 18.1
N#Cc1ccc(Oc2ccc(-c3cnc4ccccc4n3)cc2)cc1C#N | 9.9
CC(C)N(CCn1cnc2c([nH]c3ccccc32)c1=O)C(C)C | 11.5
Cc1cccc(C)c1Nc1nnc(SCC(=O)NC(=O)c2cccn2C)s1 | 3.7
OC(COc1ccc(CNCc2cccnc2)cc1)CN1CCc2ccccc2C1 (configuration not stated) | 7.8

Carrying on.
SMILES | Biofilm kill mix
CN(C)NC(=O)C12CCC(C)(C(=O)O1)C2(C)C (configuration not stated) | 23.4
CCCCCCOc1ccc(N2C(=O)CC(N3CCN(CCN=CC4=C(O)CC(C)(C)CC4=O)CC3)C2=O)cc1 (configuration not stated) | 22.6
COc1ccc(O)c(/C=N/N=C2/C(=O)Nc3ccccc32)c1 | 12.4
CC(C)CCNC(=O)[C@H](CC(C)C)NC(=O)[C@H]1O[C@@H]1C(=O)O | 17.0
COc1cc2c(C)nc3c(cnn3-c3ccccc3)c2cc1OC | 16.1
O=C(COc1ccc(Br)cc1CNC1CCCC1)Nc1ccccc1 | 24.2
CS(=O)(=O)Nc1ccccc1C(=O)NCCSCc1ccccc1 | 5.9
CC(C)CN1CCN(Cc2cccn2-c2ccc(Cl)cn2)CC1CCO (configuration not stated) | 12.2
CN(C)C(=O)c1cc([N+](=O)[O-])ccc1O | 14.8
CS(=O)(=O)N1CCN(c2ccccc2NC(=S)NC(=O)c2cccs2)CC1 | 26.1
Cc1ccc(Oc2ncccc2NC(=O)CC(CC(=O)O)c2ccccc2)c2c1CCC2 (configuration not stated) | 23.0
O=C(COC(=O)c1cn(-c2ccccc2)nc1-c1ccccc1)c1ccc([N+](=O)[O-])cc1 | 5.5
Nc1ccc2c(c1)C(=O)N(CCCCCC(=O)O)C2 | 9.4
COc1ccc(NC(=O)Cc2coc3cc(C)ccc23)cc1S(=O)(=O)N1CCOCC1 | 15.0
COCCSc1ccccc1C(=O)Nc1ccc(Cl)cn1 | 18.9
O=C(COc1ccccc1)NC(=S)Nc1ccc(Br)cn1 | 18.8
CSc1ccc(CN2CCN(CC=C(C)C)C(CCO)C2)cc1 (configuration not stated) | 12.0
COc1ccc(CC2(CO)CCN(Cc3ccncc3)CC2)cc1 | 15.1
O=C(CP(=O)(c1ccccc1)c1ccccc1)Nc1nc2ccc(Cl)cc2s1 | 21.6
CCCC(=O)NC(=S)Nc1ccccc1N1CCOCC1 | 13.8
C=CCn1c(COc2cccc(C)c2C)nnc1SCC(=O)N1CCN(c2ccccc2)CC1 | 1.9
COc1ccc(N2CCN(Cc3nc(-c4ccc(Cl)cc4Cl)no3)CC2)cc1 | 12.7
CC(C(=O)Nc1ccc(F)c(F)c1F)N(C)CC(=O)Nc1ccccc1Br (configuration not stated) | 18.9
O=S(=O)(Nc1cccc(-c2ccc3nncn3n2)c1)c1ccc(Cl)s1 | 16.9
CC(C)(C)c1ccccc1OCCOCCNCc1ccccc1 | 17.8
COC(=O)c1cc(C)sc1NC(=S)N1CCN(CCc2ccccc2)CC1 | 6.9
Cc1cccc(C)c1NC(=O)C(c1cccc([N+](=O)[O-])c1)N(C)C(=O)c1ccccn1 (configuration not stated) | 9.2
COc1ccc(/C(O)=C/c2nc3ccc(C(=O)NCCc4cccc(C)c4)cc3[nH]c2=O)cc1OC | 4.7
COc1ccc(C(=O)Nc2nc(C)c3cc4c(cc3n2)OCO4)cc1 | 10.7
COC(=O)/C(C#N)=C(/Nc1ccc(F)c(Cl)c1)C(F)(F)F | 34.5
CCOc1ccc2cc(C3CC(c4ccco4)=NN3S(C)(=O)=O)c(=O)[nH]c2c1 (configuration not stated) | 14.7
Cc1occc1C(=O)NNS(=O)(=O)c1ccc(Cl)cc1 | 7.0
COc1ccc(N2CCN(C(=O)c3ccc(F)cc3)CC2)c([N+](=O)[O-])c1 | 16.0
O=C(/C=C/c1ccco1)Nc1ccccn1 | 16.7
Cc1ccc(CNC(=O)/C=C/c2c(Cl)cccc2Cl)cc1 | 3.1
c1cnc2c(c1)ccc1cccnc12 | 16.4&9.0
CCCCNC(=O)N1CCN(Cc2cccc(F)c2)CC1 | 14.9
N=C(N)SCc1ccc(O)c([N+](=O)[O-])c1 | 5.6
CCC12CN3CCN(CC(C3)/C1=N\NC(=O)c1ccc(Cl)cc1)C2 | 8.4
COc1ccc(Cl)cc1-n1c(C)cc(C(=O)OCC(=O)N2CC(=O)Nc3ccccc32)c1C | 6.0
COc1ccc(NC(=S)Nc2ccccc2C(F)(F)F)cc1 | 8.1
O=S(=O)(Nc1nc2ccccc2nc1Nc1cccc(S(=O)(=O)N2CCCCC2)c1)c1ccccc1 | 9.0
Clc1cccc(OCc2nc(-c3ccncc3)no2)c1 | 13.1
COc1ccc(/C=C/C(=O)OCC(=O)Nc2cc(C(N)=O)cc(C(N)=O)c2)cc1 | 30.6
CCCCOC(=O)c1ccc(NC(=O)C(=O)NCc2ccncc2)cc1 | 16.3
O=C(NNC1CC(=O)N(c2ccc(Cl)cc2)C1=O)c1ccccc1Cl (configuration not stated) | 10.3
CCN1CCN(CC(=O)Nc2sc3c(c2C#N)CCC3)CC1 | 10.9
COc1cc(/C=N/Nc2nc3ccccc3s2)cc([N+](=O)[O-])c1O | 17.4
Cc1cc(=O)oc2cc(NC(=O)c3cc([N+](=O)[O-])ccc3N3CCOCC3)ccc12 | 15.3
CC(=O)N1c2ccc(Cl)cc2C2OCCC2C1c1ccco1 (configuration not stated) | 15.1
Cc1onc(C(=O)N2CCN(c3ccccc3F)CC2)c1-c1ccccc1Cl | 11.7
O=C(NCc1ccc(F)cc1)c1ccc(S(=O)(=O)Nc2cccc(C(F)(F)F)c2)cc1 | 13.1
Cc1ccc(CNC(=O)NCc2ccccc2)cc1 | 12.7
Cc1ccc(/C=C/C(=O)NCc2ccco2)o1 | 14.0
O=C(CSc1n[nH]c(=O)[nH]c1=O)Nc1ccc(C(=O)O)cc1 | -28.0
Cc1ccc(C(=O)COC(=O)CCN2C(=O)C3C4CC(C(Br)C4Br)C3C2=O)cc1 (configuration not stated) | 8.3
O=C(CSc1nccc(-c2cccs2)n1)Nc1ccc(F)c(Cl)c1 | 10.3
COc1ccc(N2C(=O)c3ccccc3C2=O)cc1 | -4.2
NC(=O)CC(NC(=O)Cc1cccc2ccccc12)c1ccc(NCC2CC2)c([N+](=O)[O-])c1 (configuration not stated) | 14.4
Fc1ccc(Nc2c3c(nc4ccccc24)CCC3)cc1 | -4.0

New compounds follow.
SMILES | Biofilm kill mix
O=C(C1=C[C@@H](c2coc3ccccc3c2=O)C[C@@H](OCc2ccc(CO)cc2)O1)N1CCCCCCC1 | 13.1
O=C(/C=C/c1ccc2c(c1)OCO2)Nc1ccc(Cl)cn1 | 14.5
C=CCn1c(=O)/c(=C2/Sc3cc(OC)ccc3N2C)s/c1=C1\C(=O)N(CC)C(=S)N1C | 5.7
O=C(Nc1cccc(C(F)(F)F)c1)C(=O)N1CCCCC1 | 1.4
CN(C)S(=O)(=O)c1cccc(NC(=O)COC(=O)COc2ccccc2[N+](=O)[O-])c1 | 13.1
O=C(CN1CCCCCC1)Nc1cc(C(F)(F)F)ccc1Cl | 1.3
COc1cc(S(=O)(=O)n2cnc(C)c2)ccc1Br | 2.1
CCOC(=O)c1csc(COc2ccccc2Cl)n1 | 20.8
CCOC(=O)c1c(C2CC2)csc1NC(=O)COC(=O)c1cnc(Cl)c(Cl)c1 | 20.7
CCn1nc(C(=O)OCC(=O)NC(C)C)c2ccccc2c1=O | -9.7
COc1ccc(NC(=O)CSc2nnc(-c3ccncc3)n2C)cc1 | 13.2
COc1ccc(C(=O)N/N=C/C(Br)=C/c2ccccc2)cc1 | 7.4
O=C(c1ccc(S(=O)(=O)N2CCCC2)cc1)N(Cc1ccco1)C1CCS(=O)(=O)C1 (configuration not stated) | 16.9
Cc1cc(Nc2cccc(Cl)c2C)n2ncnc2n1 | 15.7
